RGS16-Gao – modulators of RGS16 binding to Galphao, primary screen, biochemical, human proteins, multiplexed bead flow cytometry. 220,000 compounds, 0.38% hits. bead-based flow cytometry RGS16-Galphao binding, fluorescence; actives lie on both sides. binding response (% of control), % at 10 µM. AID 1441, 2008;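 active means below 25% or above 175%, edge rows of some plates excepted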;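 further: Galphao activated by GDP with aluminum fluoride before binding; 100% = wells without compound and 0% = beads without RGS; some results beyond the cut were filed as inactive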
INS promoter inh – inhibitors of insulin promoter-driven GFP, primary screen, imaging, TRM-6 cells (human fetal islet line), eGFP reporter, cell count | reporter expression induced with tamoxifen | inhibition, % at 2 µM | 130,000 compounds, 0.9% hits | AID 1273, 2008;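 active means inhibition above the mean plus 3 SD, with well images judged a real hit on visual review, cut at about 60% in these data, passing the limit was not always enough; inconclusive means inhibition over the cutoff but images rejected on review; inactive means inhibition not above the cutoff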
GALR2 ag – GALR2 receptor agonists, primary screen, cell-based; Galanin receptor type 2 (Homo sapiens), O43603; GALR2-expressing cells, agonist activation read-out; activation, %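 (tested at 5 µM)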; 140,000 compounds, 0.48% hits;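 active means above mean plus 3 SD of all compounds, about 5% in these data, not always enough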;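 further: 0% = vehicle buffer wells and 100% = reference agonist at full effect; tested in CHO reporter cells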
HSV replic up – enhancers of HSV replication in host cells, fold increase, host cell viability | maximum fold increase | HSV replication augmentation in cells | 220,000 compounds, 0.005% hits;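 active means peak rise of 1.5-fold or more in the series; inconclusive means self-fluorescent or not available for retest; tested in PC3 cells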;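 further: first round at 10 µM; read as green reporter fluorescence; hits show the peak of a series up to 25 µM; 1 = signal of infected wells without compound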
PKD1 kinase inh – inhibitors of human PKD1 kinase, biochemical, fluorescence polarization | Serine/threonine-protein kinase D1 (Homo sapiens), Q15139 | PKD1 kinase fluorescence polarization assay | inhibition, %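 (about 10 µM by stock and volumes)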 | 200,000 compounds, 0.056% hits | AID 797, 2007;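 active means inhibition of 50% or more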;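 further: controls were vehicle for no effect and a reference inhibitor for full effect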
Target sequence (Q15139 whole entry, looked up): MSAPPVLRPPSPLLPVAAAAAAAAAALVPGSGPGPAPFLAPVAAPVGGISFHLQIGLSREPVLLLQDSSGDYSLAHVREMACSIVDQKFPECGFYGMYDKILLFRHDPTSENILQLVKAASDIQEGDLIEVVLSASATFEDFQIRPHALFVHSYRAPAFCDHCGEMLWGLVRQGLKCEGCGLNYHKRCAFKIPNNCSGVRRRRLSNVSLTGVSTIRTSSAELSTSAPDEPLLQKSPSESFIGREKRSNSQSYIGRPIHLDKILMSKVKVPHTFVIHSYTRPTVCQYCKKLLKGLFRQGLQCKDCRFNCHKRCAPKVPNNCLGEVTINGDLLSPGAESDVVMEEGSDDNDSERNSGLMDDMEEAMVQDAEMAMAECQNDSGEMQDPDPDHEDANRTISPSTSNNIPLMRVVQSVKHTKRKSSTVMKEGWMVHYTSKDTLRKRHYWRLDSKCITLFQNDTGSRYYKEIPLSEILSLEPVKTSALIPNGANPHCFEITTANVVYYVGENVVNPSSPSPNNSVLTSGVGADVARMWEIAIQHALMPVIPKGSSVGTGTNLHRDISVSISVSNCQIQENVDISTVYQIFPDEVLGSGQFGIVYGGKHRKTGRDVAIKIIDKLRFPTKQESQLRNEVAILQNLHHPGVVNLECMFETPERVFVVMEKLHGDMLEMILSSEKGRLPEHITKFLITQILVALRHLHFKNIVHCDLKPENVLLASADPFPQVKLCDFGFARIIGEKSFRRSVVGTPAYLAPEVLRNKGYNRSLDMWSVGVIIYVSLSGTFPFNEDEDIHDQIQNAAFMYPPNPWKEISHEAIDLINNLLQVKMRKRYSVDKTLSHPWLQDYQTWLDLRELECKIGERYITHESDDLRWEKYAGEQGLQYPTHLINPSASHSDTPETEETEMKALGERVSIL
INS promoter inh cell count – second read-out of INS promoter inh, no call of its own (marks repeat the call); normalized cell count, %; measured here: cell count, toxicity; reference of the scale not given here;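 cells exposed to compound for 48 h; stained nuclei by imaging scaled within each plate; lower means fewer cells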
HSV replic up primary fold – also measured in HSV replic up; calls as there; fold increase; compound at 10 µM; measured here: primary screen fold increase 10 uM; tested in PC3 cells;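 GFP signal in the first replicate; 1 = infected wells without compound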
The depositor's hits bear a star; i = inactive; ? = inconclusive; · = no result given. Outcome played no part in choosing rows, and some 1.2% of all compounds hit somewhere here.

compound,HSV replic up primary fold,INS promoter inh,HSV replic up,INS promoter inh cell count,PKD1 kinase inh,GALR2 ag,RGS16-Gao
CCOC(CNC(=O)Cn1nc(C)c2ccccc21)OCC,0.94,·,i,·,-6,·,99
CCS(=O)(=O)c1nc(S(=O)(=O)c2ccc(C)cc2)c(NCCCN(C)C)s1,1,·,i,·,-5,·,107
Cc1onc(-c2ccccc2Cl)c1C(=O)NCc1ccc2c(c1)cc(C)n2C,1.3,·,i,·,·,·,101
COc1ccc(NC(=O)N2CCN(c3nc4ccccc4n3C(C)C)CC2)cc1,0.87,0,i,162,-8,·,115
Cc1nn(C)cc1C(C(=O)NC1CCCCC1)N(C(=O)Cc1cccs1)c1ccc(Cl)cc1 (stereo unspecified),0.95,-25,i,135,-11,-0.7,103
CC(C)CNC(=S)N1CCC(C(=O)c2ccc3c(c2)OCCO3)CC1,1,·,i,·,3,·,107
CC(C)OC(=O)Cn1c(=O)oc2ccccc21,0.94,0,i,100,-5,-1.6,105
CCN(CC)CCCNCC(=O)Nc1ccc2c(c1)CCC2,0.96,-17,i,94,8,·,104
Cn1c(=O)oc2cc(S(=O)(=O)Nc3cccc(F)c3)ccc21,0.82,·,i,·,-4,-0.7,101
CN1C(=S)SC(C)(C)C1(C)NO (stereo unspecified),·,30,·,146,0,-0.7,100
Cc1c(/C=N/n2cnnc2)c2ccccc2n1CCOc1ccc(Cl)cc1,1,·,i,·,-1,1.5,101
O=C1CCC(=O)N(O)CCCCCNC(=O)CCC(=O)N(O)CCCCCNC(=O)CCC(=O)N(O)CCCCCN1,1,·,i,·,·,·,41
Cc1c(/C(Cc2ccccc2)=N/O)c2ccccc2n1C,0.9,-20,i,88,-6,-0.5,99
Cc1ccc(/C(N)=N/OC(=O)c2ccc(F)cc2)cc1,1,17,i,107,-2,-3.4,84
COCc1cc(Sc2ccc(Cl)cc2)nc(C)n1,1,·,i,·,-1,·,101
COc1cc(C=C(c2nc3ccccc3s2)c2nc3ccccc3s2)ccc1O,·,-123,?,102,-8,-2.0,89
CCNC(=O)N1CCOCC1,0.93,86*,i,60*,-12,-0.4,98
CCOC(=O)c1sc(=NC(=O)CCSc2ccccc2)n(C)c1C,1.1,·,i,·,-6,·,98
COc1ccc(N2CCN(CC(=O)Nc3ccc(-n4cnnn4)cc3)CC2)cc1,1,52,i,95,1,-0.3,101
CCOc1ccc(NC(=O)N(C2CCCCC2)C(C)c2ccncc2)cc1 (stereo unspecified),0.98,28,i,119,-4,-2.0,105
O=C(/C=C/Nc1ccc(S(=O)(=O)Nc2cnc3ccccc3n2)cc1)c1cccnc1,0.95,·,i,·,·,·,100
CC(C)(C)/C(O)=C/c1nc2ccccc2oc1=O,0.97,-71,i,109,4,·,97
COc1ccc(Cc2nnc(NC(=O)CSc3ccc(C)cc3)s2)cc1OC,0.93,-23,i,129,-15,-2.5,70
O=C(OCc1nc2ccc(Cl)cc2n1CCO)c1ccc(O)cc1,0.96,54,i,120,-3,-0.9,109
COC(=O)CNC(=O)COC(=O)/C=C/c1cccs1,1.1,·,i,·,·,·,92
CC(=O)Oc1ccc(Oc2ccc(-c3noc(C)n3)cc2)cc1,0.57,-75,i,49,-9,-0.8,100
O=C(CSc1nc(O)c(Cc2ccccc2)c(=O)n1-c1ccccc1)N1CCOCC1,0.79,-13,i,110,-3,-4.2,103
O=C(CNc1ccccc1OC(F)F)N1CCc2ccccc21,1,·,i,·,-4,·,103
CNCCOc1ccccc1-c1ccccc1,1,3,i,99,-7,0.9,150
Cn1c(=O)[nH]c(=O)c2c1nc(Sc1ccccc1)n2CCc1ccccc1,0.85,·,i,·,-13,-1.8,103
O=C(O)Cn1cnc2scc(-c3cccs3)c2c1=O,·,0,·,124,2,-0.5,·
Cc1ccc(OCC(=O)N2CCN(C(=O)CCC3CCCC3)CC2)cc1,1.1,-310,i,57,-7,-1.4,102
CC(=O)NS(=O)(=O)c1ccc(N=c2ssc3c2-c2cc(C)ccc2NC3(C)C)cc1,1,-26,i,144,-3,-2.2,100
CCN(CC)S(=O)(=O)c1ccc(C(=O)Nc2nnc(C(C)C)s2)cc1,0.83,·,i,·,7,-2.3,98
Cc1ccccc1-c1nc(-c2ccc(NC(=O)c3ccc4c(c3)OCO4)cc2)no1,0.79,-19,i,87,4,-3.0,-166
CCCNC(=O)c1onc(CSc2ccc(F)cc2)c1C(=O)NCCC,0.82,·,i,·,·,·,102
COc1ccc(/C(O)=C2\C(=O)C(=O)N(c3cc(C)on3)C2c2cccc(OC)c2OC)cc1C (stereo unspecified),0.9,·,i,·,-5,1.2,137
CCOCCCNC(=O)c1c[nH]c2c(CC)cccc2c1=O,1,·,i,·,0,·,113
CC1CCCCN1C(=O)COC(=O)c1n[nH]c2ccccc12 (stereo unspecified),1,12,i,140,6,-2.2,94
COc1ccc2nc(-n3c(C)ccc3C)sc2c1,0.88,-44,i,61,3,-1.6,99
COc1ccccc1NC(=O)C(=O)N/N=C(\C)CC(=O)Nc1ccccn1,0.99,-15,i,123,-7,·,98
O=C(CCCOc1ccc(Cl)cc1Cl)Nc1cccnc1,·,10,·,89,-6,-3.3,105
Cc1ccc(CNC(=O)C2CCCN(c3nc4ccccc4o3)C2)cc1 (stereo unspecified),·,-75,·,154,-6,-0.3,89
COCCCNC(=S)NNC(=O)c1ccc(S(=O)(=O)N2CCC(C)CC2)cc1,1,22,i,182,-6,·,102
COc1ccc(NC(=O)COc2nc(N(C)C)nc(N(C)C)n2)cc1,0.8,32,i,131,-3,4.0,93
O=C1CC[C@@H](CN(Cc2ccccc2)Cc2cn[nH]c2-c2cc3ccccc3o2)N1,1.1,·,i,·,-3,·,98
COCCSc1ccccc1C(=O)NCC1CCCO1 (stereo unspecified),0.92,-357,i,25,-10,-1.0,80
CN(C)C=NC(=O)/C(C#N)=C1\CCc2ccccc2N1,1,·,i,·,-3,-0.4,113
COc1ccc([C@H]2[C@H](C(C)=O)N3N=Cc4ccccc4C3C23C(=O)OC(C)(C)OC3=O)cc1 (stereo partly specified),1.1,-26,i,149,-6,-0.7,105
CCCNC(=O)c1nc(C)n(-c2cc(Cl)ccc2Cl)n1,0.97,·,i,·,6,·,100
Cc1ccc2nc(Nc3nc(CSc4nnnn4-c4ccccc4)cc(=O)[nH]3)nc(C)c2c1,0.88,0,i,36,-7,-1.4,103
CCC(C(=O)Nc1ccccc1C(=O)N1CCCC1)N1C(=O)c2ccccc2C1=O (stereo unspecified),1,31,i,125,-1,-1.1,106
CC(=O)c1nn(-c2cccc(Br)c2)cc1C(=O)c1cccc2ccccc12,1.1,-11,i,62,-1,-0.6,74
Cc1cccc(NC(=O)C2c3ccccc3Oc3ccccc32)n1,0.83,7,i,83,2,·,19
O=C(O)CC1(CC(=O)Nc2ccc(F)cc2F)CCCCC1,1.1,·,i,·,·,·,114
Cn1nc(C(F)(F)F)c(-c2cccc(C(F)(F)F)c2)c1NC(=O)c1nccnc1C(=O)O,1.1,·,i,·,·,·,103
CCN(CC)C(=O)COc1ccc2oc(C)c(C(=O)OC(C)C)c2c1,0.94,-57,i,147,3,1.7,69
O=C(/C=C/c1cccc([N+](=O)[O-])c1)NCCSCc1cccc(Cl)c1,1.1,22,i,153,-5,-1.1,99
O=[N+]([O-])c1cc(/C=N/O)ccc1SCc1ccccc1,0.87,-20,i,169,-2,-2.2,104
CCN1CCN(C(=O)Cn2ncc3ccsc3c2=O)CC1,0.9,·,i,·,-3,-0.1,104

(next part)
compound,HSV replic up primary fold,INS promoter inh,HSV replic up,INS promoter inh cell count,PKD1 kinase inh,GALR2 ag,RGS16-Gao
CCn1c(N2CCN(C(=O)/C=C/c3ccccc3)CC2)nc2ccccc21,0.85,·,i,·,-5,·,103
CCOC(=O)c1ccc(NC(=O)Nc2c(C)nn(C)c2C)cc1,0.99,-7,i,100,-4,-0.2,96
Cc1cc(C)n(CC2CC(=O)N(c3ccccc3)C2=O)n1 (stereo unspecified),0.89,·,i,·,·,·,103
COc1ccc2c(c1)c(C(=O)N/N=C/c1ccc(Br)cc1)c(C)n2C,0.77,·,i,·,·,·,105
COc1ccccc1NC(=S)NCCc1ccccc1,0.93,49,i,137,-10,-1.1,108
NNC(=S)Nc1cccc(-c2n[nH]c(=S)o2)c1,1,·,i,·,·,·,103
COc1c(C)cccc1C(=O)Nc1cc(-c2nn3c(C)nnc3s2)ccc1C,0.95,·,i,·,3,0.6,·
CCNC(=S)NNC(=S)NCc1ccccc1,0.97,31,i,107,-2,-0.1,106
CCSc1nnc(NC(=O)C2CCCN(S(=O)(=O)c3cnc[nH]3)C2)s1 (stereo unspecified),0.94,·,i,·,8,-0.3,85
C=Cn1cc[n+](CC(=O)c2ccc(C)cc2)c1,1.1,14,i,125,-5,·,100
O=C(CCCN1C(=O)c2ccccc2C1=O)Nc1c2c(nc3c1CCC3)CCC2,0.98,21,i,89,3,-5.0,125
OC1CCN(C(c2ccc3ncccc3c2)c2nnnn2C2CCCCC2)CC1 (stereo unspecified),0.99,-77,i,68,-7,0.4,101
CCCc1ccc(OCc2ccc(C(=O)Nc3cccc(C)n3)o2)c(OC)c1,0.92,29,i,114,1,·,98
Cc1ccccc1OCCN1C(=O)NC2(CCCc3ccccc32)C1=O (stereo unspecified),1,-50,i,118,0,-0.8,100
Nc1ccc(S(N)(=O)=O)cc1N,1.3,·,i,·,·,·,95
N#Cc1ccccc1OCC(=O)NC(=O)NCc1ccco1,1,·,i,·,·,·,100
O=C(Nc1c(C(=O)NCc2ccco2)cnn1-c1ccccc1)c1cccc(F)c1,0.88,-287,i,42,0,-1.3,103
Cc1ccc(-c2nn(C(C)(C)C)c3ncnc(N)c23)cc1,0.79,-25,i,59,26,0.5,100
Cc1c(O)ccc(-c2n[nH]c(C(=O)O)c2-c2nc3ccccc3s2)c1O,0.91,·,i,·,·,·,97
FC(F)(F)c1ccc(Nc2nnnc3ccccc23)cc1,1,-27,i,78,-5,·,102

Three structures from above, sorted by molecular weight, highest first:
compound,HSV replic up primary fold,INS promoter inh,HSV replic up,INS promoter inh cell count,PKD1 kinase inh,GALR2 ag,RGS16-Gao
CCSc1nnc(NC(=O)C2CCCN(S(=O)(=O)c3cnc[nH]3)C2)s1 (stereo unspecified),0.94,·,i,·,8,-0.3,85
Cc1ccccc1OCCN1C(=O)NC2(CCCc3ccccc32)C1=O (stereo unspecified),1,-50,i,118,0,-0.8,100
NNC(=S)Nc1cccc(-c2n[nH]c(=S)o2)c1,1,·,i,·,·,·,103

Next section:
compound,HSV replic up primary fold,INS promoter inh,HSV replic up,INS promoter inh cell count,PKD1 kinase inh,GALR2 ag,RGS16-Gao
CC(C)N(CCO)C(=O)C(c1ccccc1)c1ccccc1,0.87,6,i,92,-9,-1.6,98
CNc1nc2ccccc2n(C)c1=O,0.97,38,i,86,-3,·,99
O=C(NC(=S)Nc1nc2ccccc2s1)c1cccs1,1.1,7,i,120,-5,-1.6,109
COc1ccc(-n2c(Cc3cccn3C)nnc2SCC(=O)NC2CCCC2)cc1,0.72,100*,i,39*,-6,-0.8,100
O=C(c1ccc(NS(=O)(=O)c2cccc3cccnc23)cc1)N1CCOCC1,0.9,-156,i,63,-3,-0.9,·
COc1cccc(CN2CCN(C(=O)c3ccc(-c4ccccc4)cc3)CC2)c1OC,0.95,·,i,·,5,·,95
CCn1c(SCC(=O)Nc2ccc(NC(=O)c3ccco3)cc2)nnc1-c1cccs1,1,38,i,78,-5,-0.2,·
O=C(NCc1ccco1)C1CCN(c2nc3ccccc3n2Cc2ccccc2F)CC1,0.69,·,i,·,-1,-2.5,99
CCOC(=O)c1ccc(NC(=O)C(CC)CC)cc1,0.83,28,i,113,-1,-1.8,104
COC(=O)CN1C(=O)COc2ccc(Cl)cc21,0.89,-22,i,96,-1,-1.0,108
OC(CN1CCN(Cc2ccccc2)CC1)c1ccc(F)cc1 (stereo unspecified),0.99,17,i,55,-1,-0.2,96

Screening data (PubChem)
